Screening results deposited in PubChem by National Center for Advancing Translational Sciences (NCATS).
Rhodamine autofl – compound fluoresces in the rhodamine spectral region | AID 594 | max dye-equivalent concentration, M | actives 0.05% (n = 59,000) | Rhodamine-region fluorescence, 547/598 nm, Tris buffer; stronger effect = higher value; in the data active = max dye-equivalent concentration above about 11 nM; inconclusive = between about 1.1 nM and that limit
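Steps: pin-transfer compounds into pH 8.0 Tris (100 mM), hold 15 min at room temperature, image with a 547/598 nm filter pair, and convert intensities to rhodamine-equivalent concentration using a six-point on-plate rhodamine series.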
15-hLO inh – blocks human 15-lipoxygenase activity | P16050 | purified 15hLO-1, xylenol orange hydroperoxide absorbance | Potency, µM (doses to about 57.1 µM), without a hit: at the highest dose activity change, negative = inhibition, actives largely listed as inhibitors | actives 1.4% (n = 74,000) | AID 887; also: potency is read from the fitted curve at half-maximal effect; % is scaled to controls: 0 for no effect and ±100 for the full control effect; nearly all actives have a fitted effect of over 55% in size
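Readout: Fe(III)-xylenol orange absorbance, 573-to-405 nm ratio as reaction progress. Enzyme 40 nM purified human 15hLO-1, substrate 50 uM arachidonic acid, 6 min RT after 15 min compound preincubation; Hepes pH 7.5 buffer with Triton X-100.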
Pol III holo inh – inhibitors of bacterial DNA polymerase III holoenzyme. reconstituted DNA polymerase III holoenzyme replication, biochemical. Potency, µM (top dose mostly 57.1 µM), for inactives: at the highest dose activity change, negative = inhibition. actives 0.25% (n = 71,000). AID 603; also: potency is read from the fitted curve at half-maximal effect; % is scaled to controls: 0 for no effect and ±100 for the full control effect
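Reconstituted *E. coli* holoenzyme (0.35 nM Pol III, 1 nM beta, 154 nM SSB, 2 nM primase) was preincubated with compound for 15 min at RT. Synthesis on 1.4 nM ssM13Gori ran 35 min, then was stopped with PicoGreen/EDTA and read as dsDNA fluorescence.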
BRCT PPI green – inhibitors of human BRCA1 BRCT-phosphoprotein interaction (green fluorophore) | BRCA1 BRCT-phosphopeptide binding, green fluorescence polarization | Potency, µM (top dose mostly 76.9 µM), for the others: at the highest dose activity change, negative = inhibition, most hits filed as inhibitors | actives 0.05% (n = 75,000) | AID 875;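 also: potency is read from the fitted curve at half-maximal effect; plate controls were peptide without protein for full effect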
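Fluorescence polarization: His-tagged BRCT (~35 kDa BRCA1 C-terminus, 250 nM) bound to 100 nM fluorescein-labeled phosphorylated 10-aa BACH1 peptide, pH 7.3 phosphate buffer with DTT and Tween 20. Compounds incubated 12 min at room temperature; inhibition read as lowered polarization.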
USP2a inhib – blocks human ubiquitin-specific protease USP2a | actives 0.1% (n = 60,000) | USP2a enzymatic assay, qHTS inhibition | AID 927 | Potency, µM (highest dose often 38.3 µM), for the others: at the top dose activity change, negative = inhibition, most hits filed as inhibitors;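 also: potency is read from the fitted curve at half-maximal effect; nearly all actives have a fitted effect of over 60% in size; plate controls were DMSO for no effect and NEM full inhibition control for full effect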
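Inhibition is measured in a cell-free coupled assay with 20 nM USP2 core, 20 nM Ub-PLA2 and 20 uM NBD C6-HPC, 2.5 h incubation. Activity normalized to NEM control.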
Tau fil binding – binds recombinant human tau filaments; AID 596; recombinant tau filaments, thioflavin S fluorescence, 15 h; filaments grown with octadecylsulfate alongside compound; Potency, µM (top dose mostly 57.1 µM), without a hit: at the highest dose activity change, negative = inhibition; P10636; actives 2% (n = 71,000);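 also: potency is read from the fitted curve at half-maximal effect; % is scaled to controls: 0 for no effect and ±100 for the full control effect; actives lower thioflavin S fluorescence by blocking filaments or displacing dye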
Target sequence (P10636 whole entry, looked up): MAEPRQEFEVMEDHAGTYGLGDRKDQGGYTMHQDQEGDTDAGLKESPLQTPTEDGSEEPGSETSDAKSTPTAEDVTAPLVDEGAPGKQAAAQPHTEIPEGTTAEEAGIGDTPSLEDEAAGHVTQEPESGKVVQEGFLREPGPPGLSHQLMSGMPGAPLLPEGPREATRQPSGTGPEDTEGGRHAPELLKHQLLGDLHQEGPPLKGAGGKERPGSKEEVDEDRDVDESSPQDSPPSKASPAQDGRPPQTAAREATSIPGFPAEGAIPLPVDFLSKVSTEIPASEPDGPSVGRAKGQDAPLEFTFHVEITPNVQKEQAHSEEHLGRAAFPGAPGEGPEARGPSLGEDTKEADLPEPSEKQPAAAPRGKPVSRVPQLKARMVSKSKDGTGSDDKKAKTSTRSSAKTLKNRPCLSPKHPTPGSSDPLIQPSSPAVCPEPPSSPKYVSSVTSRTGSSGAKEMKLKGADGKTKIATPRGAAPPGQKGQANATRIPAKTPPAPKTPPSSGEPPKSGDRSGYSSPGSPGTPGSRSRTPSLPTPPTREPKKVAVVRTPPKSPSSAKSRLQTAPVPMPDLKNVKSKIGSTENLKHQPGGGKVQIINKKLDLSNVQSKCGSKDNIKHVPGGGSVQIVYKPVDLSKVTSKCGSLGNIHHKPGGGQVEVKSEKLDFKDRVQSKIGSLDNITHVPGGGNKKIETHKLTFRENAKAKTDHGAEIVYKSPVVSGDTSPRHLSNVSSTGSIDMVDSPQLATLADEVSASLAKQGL
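Assay mix: 1 uM His-tagged tau, 30 uM sodium octadecylsulfate, thioflavine S dye in HEPES/NaCl/DTT buffer. Compound is added prior to the inducer. Fluorescence after 15 h at 37 C.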
HADH2 inhib – blocks human hydroxyacyl-CoA dehydrogenase type II | actives 3.4% (n = 73,000) | Potency, µM (top dose mostly 57.1 µM), inactives show at the top dose activity change, negative = inhibition, most hits filed as inhibitors | recombinant HADH2, NADH fluorescence, beta-hydroxybutyryl-CoA | Q99714; also: potency is read from the fitted curve at half-maximal effect; % is scaled to controls: 0 for no effect and ±100 for the full control effect; nearly all actives have a fitted effect of over 60% in size; many of its hits are not listed in these tables
Target sequence (Q99714 whole entry, looked up, one chain of several): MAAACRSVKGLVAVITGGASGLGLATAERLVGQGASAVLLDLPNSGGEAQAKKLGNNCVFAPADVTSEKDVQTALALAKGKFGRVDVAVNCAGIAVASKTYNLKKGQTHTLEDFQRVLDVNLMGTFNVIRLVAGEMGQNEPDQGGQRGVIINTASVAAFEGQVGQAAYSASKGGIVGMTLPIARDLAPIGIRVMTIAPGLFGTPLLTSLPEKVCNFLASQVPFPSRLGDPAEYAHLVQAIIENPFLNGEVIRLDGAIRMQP
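NADH fluorescence (ex 360/em 450 nm) read every 30 s for 4 min; activity taken as last-minus-first time point difference. Enzyme 20 nM, NAD+ 1 mM, beta-hydroxybutyryl-CoA 90 uM, pH 9.0 Tris buffer.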
HEK293 cAMP ctrl – parental HEK293 cAMP activation (counter-screen); parental HEK293 CNG cAMP sensor, membrane potential fluorescence; Potency, µM (highest dose often 57.1 µM), inactives show at the top dose activation, hits mostly activators; actives 2.5% (n = 73,000); also: potency is read from the fitted curve at half-maximal effect; % of control where 0% means no effect; nearly all actives have a fitted effect of over 55% in size
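Parental HEK 293 cells stably expressing a cAMP-gated CNG channel were loaded with membrane potential dye containing 100 uM RO 20-1724 for 60 min. Compound added for 30 min; depolarization read as fluorescence intensity at 590 nm.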
BRCT inh red – disrupts BRCA1 BRCT binding to phosphoprotein, red fluorophore readout; P38398; BRCT-phosphopeptide binding, red fluorescence polarization; Potency, µM (titrated, usually from 76.9 µM), inactives show top-dose activity change, negative = inhibition, hits mostly inhibitors; actives 0.03% (n = 75,000); also: % is scaled to controls: 0 for no effect and ±100 for the full control effect
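Rhodamine-labelled pBACH1 10-mer (100 nM) bound to BRCT domain (100 nM) at pH 7.3; compounds incubated 12 min room temperature, polarization read. Free peptide defines full inhibition; unlabelled decapeptide titrated as control.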
An asterisk follows results filed as active; i = inactive; ? = inconclusive; · = not tested or not shown; [ ] = another dose, or the depositor's remark. Unless noted, calls follow the shape of the dose curve; as a rule, active = well fitted curve in the direction sought with a large enough effect; inconclusive = small, poorly fitted or top-dose-only effect, or another doubt; inactive = no such curve, though single readings can be large; an effect the other way counts as inactive or inconclusive.

item	SMILES	Tau fil binding	HEK293 cAMP ctrl	15-hLO inh	Rhodamine autofl	Pol III holo inh	HADH2 inhib	BRCT inh red	USP2a inhib	BRCT PPI green
1	O=C(O)C1Cc2c([nH]c3ccccc23)C(c2ccccc2)N1 (stereo not drawn)	·	-1%[11.4 µM]	-2%[11.4 µM]	·	·	10%[11.4 µM]	-1.0%[15.4 µM]	·	-0.5%[15.4 µM]
2	N#CC1=C(N)C(C#N)(C#N)C(c2cccnc2)C2CCCC=C12 (stereo not drawn)	·	-3%	25µM*	i	-9%	77%[activator]	-3.0%	12%	?
3	CCN(CC)c1nc2cc(OC)ccc2cc1C#N	5%	15%	-12%	i	-3%	-8%	-0.8%	-8%	1.8%
4	Cc1ccc2cc(C#N)c(N3CCCN(S(=O)(=O)c4ccccc4)CC3)nc2c1	-17%	?	2%	i	-4%	14%	-1.6%	·	8.6%
5	COc1ccc(-c2cc(C(F)F)n3ncc(C(=O)N4CCN(C(=O)c5ccco5)CC4)c3n2)cc1	-14%	6%	-2%	·	4%	?	-0.8%	·	-0.1%
6	COc1ccc(/C=C/C(O)=C2/C(=O)N(C)C3(C)CC2c2ccccc2O3)cc1 (stereo not drawn)	6%	28%	-6%	i	0%	25%	-2.7%	31%[activator]	1.4%
7	O=c1oc2c3c4c(cc2c2c1CCC2)OCCN4CCC3	i	-21%	?	·	-16%	42%[activator]	-0.2%	24%	-5.2%
8	Cc1c(C)c2cc(Cl)c(O)c(CN(C)C)c2oc1=O	16%	5%	-23%	i	-3%	3.2µM*	-0.8%	-4%	-4.0%
9	CCOCCOC(=O)C1=C(C)NC2=C(C(=O)CC(c3cccs3)C2)C1c1ccsc1 (stereo not drawn)	51%	1%	-3%	·	-8%	99%[activator]	-1.5%	21%	-3.7%
10	c1coc(-c2nc(-c3ccco3)c(-c3ccco3)nc2-c2ccco2)c1	?	13%	2µM*	i	1.6µM*	5µM*	?	?	13µM*
11	CC(C)C(=O)Nc1ccccc1N1CCN(S(C)(=O)=O)CC1	318%	0%	-22%	i	-14%	?	-1.0%	5%	-2.8%
12	COc1ccc2nc(SCC(=O)N3CCCCCC3)c(C#N)cc2c1	1%	24%	-16%	i	-3%	8%	-1.5%	21%	4.9%
13	COc1cccc(Nc2ncc3nc(-c4ccc(Cl)cc4)c(=O)n(CCC#N)c3n2)c1	i	?	0%	i	-6%	1%	-1.9%	177%[activator]	38%[activator]
14	CCNc1ncc2nc(-c3ccc(OC)cc3)c(=O)n(C[C@H]3CCCO3)c2n1	57%	?	4%	i	-12%	12%	0.4%	61%[activator]	1.0%
15	Cn1c(=O)c2nc(NCc3ccccc3)cnc2n(C)c1=O	i	7%	3%	i	-2%	-12%	-3.0%	3%	-2.3%
16	COc1cccc(-c2cc(C(F)(F)F)n3ncc(C(=O)NCC4CCCO4)c3n2)c1 (stereo not drawn)	?	?	-7%	i	-8%	6%	0.6%	14%	-2.2%
17	CN1CC=C2C(C#N)=C(N)C(C#N)(C#N)C(c3cccc(Cl)c3Cl)C2C1 (stereo not drawn)	487%	-15%	?	i	-11%	-12%	-0.7%	20%	0.9%
18	COC(=O)C1=COC(C)C2CN3CCc4c([nH]c5ccccc45)C3CC12 (stereo not drawn)	340%	24%	-15%	·	1%	-15%	-1.4%	28%	-1.7%
19	CC(=O)N(Cc1ccccc1)c1ncc2c(n1)c(=O)c(C#N)c1ccccn12	392%	1%	-7%	i	-7%	-22%	-1.3%	9%	-12%
20	O=C(O)Cn1c(O)c(C=Nc2ccccc2)sc1=S	32%	25%	?	i	1%	-14%	1.4%	4%	0.5%
21	COc1cccc(Nc2ncc3nc(-c4ccc(Cl)cc4)c(=O)n(C4CC4)c3n2)c1	25%	-10%	-4%	i	4%	-7%	-2.1%	178%[activator]	0.2%
22	C=CCN1CCN(c2nc3ccccc3nc2C#N)CC1	?	12%	-12%[25.6 µM]	·	-3%	-2%	0.5%	·	-3.2%
23	COc1ccc(-c2nc3cnc(Oc4ccccc4)nc3n(C3CC3)c2=O)cc1	2%	?	-6%	i	-8%	-9%	0.4%	137%[activator]	-2.2%
24	COCCNc1cc(C)nc2c3c(C)cc(C)nc3nn12	95%	8%	-10%	i	2%	4µM*	2.3%	7%	-8.6%
25	O=C(c1cccn2c(=O)c3ccccc3nc12)N1CCN(Cc2ccc3c(c2)OCO3)CC1	1%	3%	-6%	i	0%	-29%	-0.8%	21%	1.4%
26	COc1ccc2nc3sc(C(=O)NCc4cccs4)c(N)c3cc2c1	?	-3%	20µM*	i	-10%	-9%	0.0%	·	4.4%
27	Nc1c(NCc2ccccc2F)c(=O)[nH]c(=O)n1Cc1ccccc1	196%	-4%	-11%	i	-2%	0%	0.0%	32%[activator]	-7.9%
28	COc1ccc(-c2nc3cnc(N4CCOCC4)nc3n(CCC#N)c2=O)cc1	186%	18%	-2%	i	-8%	1%	-2.3%	11%	-0.9%
29	Cn1cc(-c2nc3cncnc3n(Cc3ccc(F)cc3)c2=O)c2ccccc21	210%	2%	-8%	i	-7%	-15%	1.1%	44%[activator]	-0.3%
30	COc1ccc(CN2CCN(c3cc(C)nc4c5c(C)cc(C)nc5nn34)CC2)cc1F	22%	14%	1%	i	-7%	?	-0.6%	-10%	1.2%

Some entries already given, reduced to Pol III holo inh and BRCT inh red.
item	canonical_smiles	Pol III holo inh	BRCT inh red
21	COc1cccc(Nc2ncc3nc(-c4ccc(Cl)cc4)c(=O)n(C4CC4)c3n2)c1	4%	-2.1%
27	Nc1c(NCc2ccccc2F)c(=O)[nH]c(=O)n1Cc1ccccc1	-2%	0.0%

Other records follow:
item	SMILES	Tau fil binding	HEK293 cAMP ctrl	15-hLO inh	Rhodamine autofl	Pol III holo inh	HADH2 inhib	BRCT inh red	USP2a inhib	BRCT PPI green
31	CCOC(=O)Cc1c(C)c2c(O)cc(O)cc2oc1=O	-7%	19%	-4%	i	-6%	32µM*	-0.7%	-6%	-1.5%
32	COc1ccc(C2C(C(C)=O)=C(C)N=c3s/c(=C\c4ccc5c(c4)OCO5)c(=O)n32)c(OC)c1 (stereo not drawn)	4µM*	-3%	-5%	·	6%	8%	-0.1%	-5%	7.1%
33	CCCCOC(=O)Nc1ccc(C(=O)OC)cc1	26%	20%	4%	·	-2%	9%	0.0%	5%	-0.4%
34	CCOC(=O)Cn1nnnc1C(CC)N(Cc1cc2ccc(C)cc2[nH]c1=O)C1CCCC1 (stereo not drawn)	16%	16µM*	-28%	i	-4%	3%	-1.5%	20%	-3.5%
35	O=c1oc2ccccc2cc1-c1nc2ccccc2o1	-24%	-12%	0%	i	-3%	7.9µM*	-0.5%	1%	0.7%
36	C=CCn1c(=S)[nH]c2ccc(Br)cc2c1=O	444%	12%	-30%	i	-2%	?	-0.5%	19%	-2.5%
37	Cc1c(NC(=O)CN2C(=O)c3cccc4cccc2c34)c(=O)n(-c2ccccc2)n1C	4%	5%	7%	i	5%	-4%	-0.8%	1%	-2.7%
38	COc1cccc(Cn2c(=O)c(-c3cccs3)nc3cnc(N4CCN(C)CC4)nc32)c1	i	-10%	-10%	i	-6%	17%	-0.7%	146%[activator]	11%
39	COCCn1c(=S)[nH]c2ccc(N(C)C)cc2c1=O	250%	2%	-3%	i	-11%	?	0.5%	60%[activator]	-2.5%
40	CCOC(=O)c1cc2ccc(OC(=O)c3ccco3)cc2oc1=O	i	2%	-10%	i	-7%	i	0.1%	-1%	-4.2%
41	CCNc1ncc2nc(-c3cc(F)cc(F)c3)c(=O)n(CCC#N)c2n1	i	7%	-6%	i	1%	308%[activator]	-0.5%	94%[activator]	23%
42	O=C(CN1c2cccc3cccc(c23)S1(=O)=O)N1CCOCC1	342%	-1%	?	i	-15%	16µM*	-14%	40%[activator]	?
43	COc1ccc(-c2nc3cnc(N4CCNCC4)nc3n(Cc3cccc(OC)c3)c2=O)cc1	178%	-3%	-12%	i	2%	14%	0.6%	108%[activator]	-1.2%
44	Cn1c(=O)c(-c2ccc(Cl)cc2)nc2cnc(N3CCOCC3)nc21	4%	10%	-2%	i	9%	4%	-1.9%	-2%	-1.5%
45	Oc1ccc(N=Cc2ccc(-c3cccs3)s2)cc1	?	4%[11.4 µM]	4µM*	·	-3%[11.4 µM]	2.5µM*	0.0%	30%[activator][7.66 µM]	0.0%
46	C=CCn1c(NC(=O)c2ccc(C)cc2)c(C#N)sc1=N	-1%	-10%	-8%	i	1%	26%	0.0%	8%	0.2%
47	O=C(NCc1ccco1)c1c2c(nc3ccccc13)CCC2	-9%	14%	-21%	i	-16%	?	-5.5%	18%	-1.4%
48	CCc1cc2c(=O)c(Oc3ccccc3F)c(C)oc2c(CN(C)C)c1O	4%	3%	-3%	·	-3%	32µM*	-0.5%	4%	-1.3%

Only part of the results is shown; rates above refer to the full screens.
